Assay outcomes (PubChem)
Rango dissoc inh: prevents RanGTP from dissociating the Rango-importin beta complex. O95149+P62826. Biochemical FRET Rango-importin beta, RanGTP-induced dissociation. Potency, µM (doses to about 46.1 µM), without a hit: at the top dose activity change, negative = inhibition. 340,000 compounds, 0.071% hits. AID 540253; active means falling FRET ratio curve, often poorly fitted, with flat reads before Ran was added; inconclusive means other falling curves, or compound fluorescence or quenching; inactive means flat or rising ratio curve;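 further: potency means the concentration at half of the fitted maximal effect; % of control where 0% means no effect; nearly all actives have a fitted effect of over 45% in size; -100% = wells without RanGTP and RCC1; the record marks most hits as doubtful in a second field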
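Compounds preincubate 5 min with complex of recombinant Rango and importin beta in PBS with 1 mM DTT. Ran (0.6 uM) loaded with 2 mM GTP plus 0.2 uM RCC1 starts dissociation; FRET is recorded 45 min later.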
miR-21 reporter: raises the signal of a miR-21 reporter | HeLa miR-21 FLuc reporter, luciferase, 48 h | AID 2288 | Potency, µM (titrated, usually from 38.3 µM), for the others: at the highest dose reporter change, positive = more light | 340,000 tested, under 10 active; active = well fitted rising curve with a large enough effect; inconclusive = small, poorly fitted or top-dose-only effect; inactive = no such curve, though single readings can be large or run the other way;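 further: % of control where 0% means no effect; miR-21 action dims this reporter so a rising signal means less miR-21 action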
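HeLa cells stably expressing CMV-driven firefly luciferase with a downstream miR-21 binding sequence, endogenously expressing miR-21, were treated with titrations (up to about 40uM final) for 48 hours at 37 degree Celsius. Luciferase luminescence was read after lysis.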
Rango-impB inh: Rango-importin beta binding inhibition. Q14974. Rango CFP/YFP FRET sensor + importin beta, 45 min. Potency, µM (top dose mostly 92.2 µM), for the others: at the top dose inhibition of complex formation. 340,000 compounds, 0.031% hits. AID 540263; active = rising FRET ratio curve, often small or poorly fitted; inconclusive = mostly compound fluorescence or quenching in the first reads; inactive = flat curves in all reads;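 further: potency means the concentration at half of the fitted maximal effect; 0% = DMSO wells and 100% = buffer wells lacking importin beta; nearly all actives have a fitted effect of over 15% in size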
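Inhibition scored from the CFP 486 nm/YFP 530 nm FRET ratio 45 min after adding 0.125 microM importin beta to 50 nM Rango biosensor preincubated 5 min with compound (room temperature, PBS with DTT, Tween-20, BSA). No-importin wells as positive control.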
GLA inh pH 4.5: alpha-galactosidase A (human) inhibition, pH 4.5; P06280; purified enzyme, 4-MU-alpha-Gal fluorescence, pH 4.5; activity change, negative = inhibition, % at 105 µM; 230,000 tested, under 10 active; inconclusive = small, poorly fitted or top-dose-only inhibition, or a rising curve; inactive = flat fitted curve, though single readings scatter; no compound was filed as active;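 further: 0% = full activity with enzyme and -100% = basal without enzyme; dose as in the result columns while the protocol names 77 µM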
Target sequence (P06280 whole entry, looked up): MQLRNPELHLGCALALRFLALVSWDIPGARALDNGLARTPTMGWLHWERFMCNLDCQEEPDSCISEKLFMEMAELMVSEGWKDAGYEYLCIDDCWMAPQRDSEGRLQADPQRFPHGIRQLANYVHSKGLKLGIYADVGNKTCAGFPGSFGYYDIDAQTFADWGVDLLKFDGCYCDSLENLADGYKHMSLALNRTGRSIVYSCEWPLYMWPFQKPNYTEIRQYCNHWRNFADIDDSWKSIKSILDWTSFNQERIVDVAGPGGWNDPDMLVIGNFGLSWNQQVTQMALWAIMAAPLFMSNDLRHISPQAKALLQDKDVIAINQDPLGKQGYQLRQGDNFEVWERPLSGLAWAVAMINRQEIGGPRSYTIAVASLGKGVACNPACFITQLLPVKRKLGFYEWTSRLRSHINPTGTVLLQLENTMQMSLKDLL
The depositor's hits bear a star; ? = inconclusive; / = not tested or not shown. Some of the compounds tested; rates above refer to the full screens.

Letter code – A = Rango dissoc inh; B = miR-21 reporter; C = Rango-impB inh; D = GLA inh pH 4.5
O=C(c1cc2cc(F)ccc2[nH]1)N1CCN(c2cccc(Cl)c2)CC1
  A: 1.0% | B: -0.8% | C: -2.6% | D: /
O=C(Nc1nc(-c2ccccc2)cs1)c1cccc([N+](=O)[O-])c1
  A: 3.3% | B: -1.7% | C: 0.1% | D: -20.5
O=C(NCC1CCCO1)/C(=C\c1ccc(Cl)cc1)NC(=O)c1ccccc1 (stereo not drawn)
  A: -5.5% | B: -3.1% | C: 2.7% | D: 0.9
Cc1ccc(Cn2c(SCCN3CCCCC3)nc3c2c(=O)[nH]c(=O)n3C)cc1
  A: -9.6% | B: -9.8% | C: 3.9% | D: 0.7
Cc1cccc(-n2c(N)c(C(=O)N3CCN(C)CC3)sc2=S)c1
  A: -6.2% | B: -4.5% | C: ? | D: -10.1
CN(CC(=O)Nc1ccc(Cl)cc1)C(=O)CCc1ccccc1
  A: -10.3% | B: -0.8% | C: -2.0% | D: /
CCCC(=O)N1CC2(C)CN(C(=O)CCC)CC(CCC)(C1)C2=O
  A: 8.4% | B: -14.9% | C: 3.0% | D: 7.3
Cc1ccccc1CNC(=O)CN(c1cccc([N+](=O)[O-])c1)S(C)(=O)=O
  A: -8.4% | B: 3.4% | C: 0.1% | D: -19.4
CCN(CC)CC(=O)NCC1(c2ccccc2)CCCC1
  A: -10.7% | B: -1.9% | C: ? | D: 3.4
CCOC(=O)N1CCc2c(sc(NC(=O)CN3CCN(C)CC3)c2C(=O)Nc2ccccc2)C1
  A: 3.0% | B: -3.6% | C: 1.2% | D: -1.7
Cc1ccc(CNC(=O)CN(c2ccc(C(C)C)cc2)S(=O)(=O)c2c(C)noc2C)cc1
  A: -13.8% | B: -3.8% | C: 1.8% | D: /
Nc1nc2ccccc2cc1S(=O)(=O)c1ccccc1
  A: -14.1% | B: -0.6% | C: -0.9% | D: 19.2
COc1cc(OC)cc(C(=O)Nc2cc(-c3cn4cccnc4n3)ccc2C)c1
  A: -13.9% | B: -13.1% | C: ? | D: 12.5
Cc1cccc(Nc2nn3c(=O)c4ccccc4nc3s2)c1
  A: -15.7% | B: -37.4% | C: 1.9% | D: 0.3
Cn1c2ccccc2c(=O)c2ccc(-c3ccc4c(c3)OCO4)cc21
  A: ? | B: -70.2% | C: ? | D: /
CCC(=O)N1CCc2cc(S(=O)(=O)CCC(=O)NCCc3ccc(S(N)(=O)=O)cc3)ccc21
  A: 10.2% | B: -4.2% | C: 3.6% | D: /
CCOc1ccc(S(=O)(=O)NCCC(=O)N(C)CC(=O)Nc2ccc(OC)cc2)cc1
  A: -6.1% | B: -2.0% | C: -0.8% | D: /
FC(F)Oc1ccccc1NC(=S)NCCc1ccccc1
  A: 0.6% | B: / | C: 6.8% | D: /
COc1ccc(Cl)cc1-c1nc(SCC(=O)N(C)CCC#N)n[nH]1
  A: 0.9% | B: -5.2% | C: -2.6% | D: 2.6
O=c1c2ccccc2c(C=NCc2ccccn2)c(O)n1-c1ccccc1Cl
  A: -6.6% | B: -11.9% | C: -1.0% | D: -7.4
O=C1CC(Cc2ccc(Cl)cc2)C(=O)N1c1ccncc1 (stereo not drawn)
  A: -4.2% | B: -3.1% | C: -0.2% | D: -2.6
O=C(CCc1ccccc1)Nc1cc(NC(=O)CCc2ccccc2)cc(C(=O)O)c1
  A: -6.9% | B: -3.2% | C: -0.2% | D: -4.5
O=C1CC(SC(=NCc2ccc3c(c2)OCO3)Nc2ccccc2)C(=O)N1 (stereo not drawn)
  A: 1.0% | B: -11.3% | C: ? | D: 1.0
C=C(C)CSc1nnc(-c2ccc(C)cc2)n1N
  A: 8.1% | B: -55.8% | C: -1.4% | D: -0.5
CCCn1c(N)c(C(=O)CSc2nnnn2-c2ccc(O)cc2)c(=O)n(C)c1=O
  A: -8.3% | B: -0.4% | C: 0.1% | D: 1.2
Cc1cc(C)cc(NC(=O)C2CCN(C(=O)c3cccs3)CC2)c1
  A: 4.3% | B: 1.1% | C: -1.4% | D: /
COc1ccccc1CNC(=S)Nc1ccc(S(N)(=O)=O)cc1
  A: -1.3% | B: -1.0% | C: -3.2% | D: /
CS(=O)(=O)N1CCC(Oc2ccccc2C(=O)NC2CCCCCC2)CC1
  A: -11.4% | B: 0.5% | C: -1.3% | D: 4.1
COc1cc(/C=N/Nc2ccc(Cl)c(C(=O)O)c2)ccc1OC(=O)c1ccc(F)cc1
  A: -0.8% | B: -6.7% | C: -2.6% | D: /
CC[C@@H]1C=C(C(=O)O)[C@H](c2ccc3c(c2)OCO3)N1S(=O)(=O)c1ccc(C)cc1
  A: -11.6% | B: / | C: -0.5% | D: /

A few values from the results shown:
For miR-21 reporter, `COc1cc(/C=N/Nc2ccc(Cl)c(C(=O)O)c2)ccc1OC(=O)c1ccc(F)cc1` has the entry -6.7%
For miR-21 reporter, `O=C1CC(SC(=NCc2ccc3c(c2)OCO3)Nc2ccccc2)C(=O)N1` (stereo not drawn) has the entry -11.3%
For Rango dissoc inh, `FC(F)Oc1ccccc1NC(=S)NCCc1ccccc1` has the entry 0.6%

More structures
Letter code – A = Rango dissoc inh; B = miR-21 reporter; C = Rango-impB inh; D = GLA inh pH 4.5
Cc1ccnc(NC(=O)COC(=O)C2COc3ccccc3O2)n1 (stereo not drawn)
  A: -8.9% | B: -2.1% | C: -2.3% | D: 3.5
Cc1c(CN2CC[C@@H](N3CCN(c4ccccn4)CC3)[C@H](O)C2)[nH]c2ccc(F)cc12
  A: ? | B: 27.9% | C: 0.1% | D: /
O=C(NCC1CCCN1S(=O)(=O)c1cccs1)c1ccccc1F (stereo not drawn)
  A: -11.4% | B: / | C: ? | D: /
CCc1ccc(NC(=O)Nc2cccc(OC)c2)cc1
  A: 5.0% | B: -41.2% | C: 0.3% | D: -1.0
O=C(NCc1ccccc1)c1ccc(=O)[nH]n1
  A: 20.6% | B: -2.1% | C: 6.6% | D: 1.6
CC(=O)c1c(C)nc2ccc(Cl)cn12
  A: 1.0% | B: -1.4% | C: 0.6% | D: 5.4
CCC(=O)N1CCc2cc(S(=O)(=O)CCC(=O)Nc3ccc(F)c(F)c3)ccc21
  A: 5.6% | B: 10.7% | C: -0.2% | D: -3.3
CCC(c1nc2ccccc2c(=O)n1CCCn1ccnc1)N1C(=O)c2ccccc2C1=O (stereo not drawn)
  A: -6.7% | B: -3.9% | C: -3.3% | D: 0.5
COc1cccc(CN2CCNC(=O)C2CC(=O)N(C)CCC2CCOCC2)c1OC (stereo not drawn)
  A: -0.6% | B: -0.3% | C: -0.3% | D: /
CCC(C)NC(=O)CSc1nc(-c2cccs2)cc(C(F)(F)F)n1 (stereo not drawn)
  A: 0.0% | B: 3.9% | C: 1.8% | D: -10.0
Cc1ccc(S(=O)(=O)c2cc3cc(Br)ccc3oc2=O)cc1
  A: ? | B: -1.6% | C: ? | D: 2.5
CC(C)NC(=O)Nc1ccc2c(c1)C(=O)N([C@H](C)CO)C[C@H](C)[C@@H](CN(C)S(=O)(=O)c1ccc(F)cc1)O2
  A: 24.7% | B: / | C: -0.1% | D: /
Cc1ccc(C(=O)Cn2c(N3CCOCC3)nc3c2c(=O)n(C)c(=O)n3C)cc1
  A: -0.1% | B: -3.7% | C: 0.5% | D: 2.1
Cc1cc(-c2nc3ccccc3o2)c2ccccc2n1
  A: 14.8% | B: -8.1% | C: 9.1% | D: 6.8
CCOC(=O)C1=C(C)C2C3C(=O)N(c4ccccc4C)C(=O)C3C1(C)C1C(=O)N(c3ccccc3C)C(=O)C21 (stereo not drawn)
  A: -1.1% | B: -9.0% | C: -6.1% | D: -5.9
O=C(COC(=O)/C=C/c1ccc(C(F)(F)F)cc1)NC1CCCC1
  A: -8.3% | B: 3.5% | C: -3.4% | D: /
O=C(CSc1nc2ccccc2o1)N/N=C/c1ccccc1C(=O)O
  A: 12.7% | B: -43.7% | C: 5.5% | D: 1.2
c1ccc(CSc2nnc(-c3ccccc3)c(-c3ccccc3)n2)cc1
  A: 1.7% | B: / | C: 0.4% | D: /
CC(=O)C1=NOC(CNC(=O)c2c(-c3ccccc3Cl)noc2C)C1 (stereo not drawn)
  A: 1.3% | B: 0.6% | C: -2.2% | D: 0.8
CCN1CCN(C(=O)C(C)Sc2nnc3nc(C)cc(C)n23)CC1 (stereo not drawn)
  A: -6.8% | B: / | C: 0.0% | D: /
c1ccc2c(CN3CCOCC3)c3ccccc3c(CN3CCOCC3)c2c1
  A: 15.1% | B: -8.2% | C: 4.5% | D: ?
Cc1cccc2sc(N3CCN(C(=O)C4COc5ccccc5O4)CC3)nc12 (stereo not drawn)
  A: -12.6% | B: / | C: 1.7% | D: /
COc1ccc(C(=O)Oc2ccc(/C=N/Nc3ccc(Cl)c(C(=O)O)c3)cc2OC)cc1
  A: 1.9% | B: -50.2% | C: -0.1% | D: /
CN(C)c1ccc(/C=N/NC(=S)NCc2ccco2)cc1
  A: -5.2% | B: -41.6% | C: -0.1% | D: 1.8
COc1ccc2c(C)c(CCC(=O)NC3CC3)c(=O)oc2c1C
  A: 14.6% | B: -18.0% | C: 3.4% | D: /
CCOC(=O)c1[nH]c2ccc(OC)cc2c1NC(=O)CN1CCC2(CC1)OCCO2
  A: 8.4% | B: -3.2% | C: 1.7% | D: -2.6
CCOc1ccc2nc(SCC(=O)NC3CC3)sc2c1
  A: -7.9% | B: -22.2% | C: 5.4% | D: /
N#Cc1ccc(C(=O)CSc2n[nH]c(=O)n2-c2cccnc2)cc1
  A: 14.8% | B: 1.7% | C: 3.7% | D: 3.3
O=C1NC(=O)C(Cc2c[nH]c3ccccc23)N1 (stereo not drawn)
  A: 0.3% | B: -3.0% | C: 5.3% | D: /
O=c1c(C(c2ccc(O)cc2)c2c(O)nc3n(c2=O)CCS3)c(O)nc2n1CCS2
  A: 13.7% | B: 2.7% | C: 1.1% | D: 0.7
COc1cccc(NC(=O)COc2ccccc2C(N)=O)c1
  A: -6.7% | B: -29.5% | C: -2.7% | D: -2.8
Cc1nc(N2CCC(C)CC2)c2c(C)c(C(=O)Nc3ccc4c(c3)OCCO4)sc2n1
  A: 6.5% | B: -4.1% | C: 0.0% | D: /
COc1ccc(CC(C(=O)Nc2cccc(F)c2)c2nn[nH]n2)c(OC)c1 (stereo not drawn)
  A: 24.8% | B: -11.4% | C: 3.5% | D: 7.7
Nn1c(-c2ccccc2Cl)nnc1-c1ccccc1Cl
  A: -11.9% | B: -42.5% | C: 1.0% | D: 2.0
Fc1ccc(-c2cc3nc(-c4ccccc4)cc(N4CCN(CCN5CCOCC5)CC4)n3n2)cc1
  A: ? | B: ? | C: ? | D: 8.7
O=C(Oc1ccccc1O)c1cccc2ccccc12
  A: / | B: -11.5% | C: / | D: 7.3
CN(CC(=O)Nc1ccc(F)c(F)c1F)C(=O)C1CCCO1 (stereo not drawn)
  A: 1.2% | B: / | C: 5.5% | D: /
CCN1CCN(C(=O)C(=O)c2c(C)[nH]c3ccccc23)CC1
  A: 18.9% | B: -1.9% | C: -5.7% | D: 9.0
CCN1CCN(C(=O)c2cc3cc([N+](=O)[O-])ccc3oc2=O)CC1
  A: -13.7% | B: -2.0% | C: -1.3% | D: -3.8
COc1ccc(OC)c(CCNC(=O)c2ccc(CS(=O)(=O)c3ccc(Br)cc3)o2)c1
  A: -2.7% | B: 12.4% | C: -3.6% | D: 1.1

3 records picked at random from the list so far, as already listed:
Letter code – A = Rango dissoc inh; B = miR-21 reporter; C = Rango-impB inh; D = GLA inh pH 4.5
CCOC(=O)c1[nH]c2ccc(OC)cc2c1NC(=O)CN1CCC2(CC1)OCCO2
  A: 8.4% | B: -3.2% | C: 1.7% | D: -2.6
COc1ccc(Cl)cc1-c1nc(SCC(=O)N(C)CCC#N)n[nH]1
  A: 0.9% | B: -5.2% | C: -2.6% | D: 2.6
Cc1cccc(Nc2nn3c(=O)c4ccccc4nc3s2)c1
  A: -15.7% | B: -37.4% | C: 1.9% | D: 0.3

Only GLA inh pH 4.5, miR-21 reporter and Rango dissoc inh (2 entries from above):
| mol | GLA inh pH 4.5 | miR-21 reporter | Rango dissoc inh |
| --- | --- | --- | --- |
| CCN1CCN(C(=O)c2cc3cc([N+](=O)[O-])ccc3oc2=O)CC1 | -3.8 | -2.0% | -13.7% |
| COc1ccc(OC)c(CCNC(=O)c2ccc(CS(=O)(=O)c3ccc(Br)cc3)o2)c1 | 1.1 | 12.4% | -2.7% |
